Ecoli rRNA inh = inhibits bacterial ribosomal RNA function over humanized ribosomes | GFP signal change (wild-type ribosome), % (test concentration not listed) | actives 1.6% (n = 350,000) | E. coli WT GFP vs humanized-ribosome RFP mutants, fluorescence, 24 h; hits give low values; DMSO median 0, no signal -100 | AID 720706;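 active = significant combined selectivity score with lowered wild-type GFP, culture density cut under 30%, mutant RFP and density less affected; inactive = any of these conditions unmet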; also: one replicate is shown; some compounds called inactive have numbers as strong as hits
Beta apoptosis = blocks beta cell apoptosis; INS-1E cytokine-induced death, ATP luminescence, 48 h; percent of positive-control rescue, neutral wells zero; protection from apoptosis, % (test concentration not listed); actives 0.8% (n = 300,000); AID 435005;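 active = all replicates at 75% or more, or half of them and the mean; inconclusive = half reach 75% but not the mean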;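 also: 0% = cytokine-treated negative control wells and 100% = positive control rescue; higher means more ATP so stronger rescue from cytokine killing; wells of about 40 µL received 100 nL stock; the first replicate is given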
RanGTP-Imp inh = inhibitors of RanGTP-importin-beta interaction, primary screen, biochemical, FRET, CFP-Ran, YFP-importin-beta, homogeneous. cell-free CFP-Ran/YFP-importin-beta FRET ratio. inhibition, % (test concentration not listed). actives 1.1% (n = 300,000);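 active = most replicates above 15%; inconclusive = exactly half above 15%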;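 also: 0% = DMSO wells and 100% = Ran loaded with GDP instead of GTP; wells of about 40 µL received 100 nL stock; the first replicate is given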
Calb FLC = C. albicans growth modulation with fluconazole; C. albicans CaCi-2 (fluconazole-resistant clinical isolate) + fluconazole, Alamar Blue growth, 48 h; growth inhibition, % (no concentration beside the values); actives 0.57% (n = 300,000); AID 1979;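 active = most replicates above 75%; inconclusive = exactly half above 75%; inactive = most below 75%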;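 also: all wells also contain fluconazole at 8 µg/ml as a sub-toxic cotreatment; 0% = median of DMSO wells and 100% = median of geldanamycin control wells; wells of about 8 µL received 7.5 nL stock; the first replicate is given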
T cruzi repl = blocks replication of Trypanosoma cruzi | actives 1.4% (n = 300,000) | T. cruzi beta-gal in NIH3T3, luminescence, 90 h | inhibition, % (no concentration beside the values);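 active = mean inhibition across valid replicates above about 55%, limit read from the data; inconclusive = mean below that limit but half or more replicates reach it; inactive = mean below it, under half of replicates reach it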;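 also: signal also drops with host cell toxicity which is not excluded here; 0% = plate median of DMSO wells and 100% = zero luminescence signal; higher percent means less beta-gal luminescence so fewer parasites; stock transfer was 50 nL into about 50 µL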
FGF22 binding = binders of recombinant human FGF22 by thermal shift. actives 1.5% (n = 340,000). SYPRO orange fluorescence; percent of sucrose octasulfate shift, DMSO zero. calls only at 9.99 µM. AID 651658;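 active = melting point raised past a set limit in the mean and every replicate; inconclusive = no clear call; three in four hits are not shown here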
Target sequence (Q9HCT0 whole entry, looked up): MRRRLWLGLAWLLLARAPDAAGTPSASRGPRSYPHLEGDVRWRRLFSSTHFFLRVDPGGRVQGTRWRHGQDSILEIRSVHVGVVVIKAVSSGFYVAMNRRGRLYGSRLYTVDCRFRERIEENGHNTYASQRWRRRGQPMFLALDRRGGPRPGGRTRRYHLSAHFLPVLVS
ALR inh = blocks human ALR sulfhydryl oxidase activity; actives 3.8% (n = 290,000); purified ALR, DTT oxidation, H2O2 HRP-luminol luminescence; inhibition, % (concentration not given with the values);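 active = mean and each replicate at 75% or more; inconclusive = only one of the two met; inactive = neither met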;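 also: stock transfer was 7.5 nL into about 7.5 µL; 0% = neutral wells and 100% = wells with inactivated enzyme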
Target sequence (P55789 whole entry, looked up): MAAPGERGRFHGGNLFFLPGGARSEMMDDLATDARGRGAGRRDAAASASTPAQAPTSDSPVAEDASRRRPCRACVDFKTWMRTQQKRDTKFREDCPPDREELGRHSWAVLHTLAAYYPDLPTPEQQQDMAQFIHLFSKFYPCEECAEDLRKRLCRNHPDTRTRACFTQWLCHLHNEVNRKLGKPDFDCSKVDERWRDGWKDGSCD
AF4-AF9 inh = blocks AF4 peptide binding to human AF9. P42568. AlphaScreen, biotin-AF4 peptide binding to FLAG-AF9. inhibition, % at 10 µM. actives 0.47% (n = 350,000);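 active = every replicate reaching a set inhibition limit, whatever the replicate mean, cut at about 25% in these data; inconclusive = mean inhibition reaches that limit but some replicates miss it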;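 also: 0% = plate neutral control median and 100% = total signal loss; the record names both 10 and 1 µM as test concentration; the first replicate is given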
Target sequence (P42568 whole entry, looked up): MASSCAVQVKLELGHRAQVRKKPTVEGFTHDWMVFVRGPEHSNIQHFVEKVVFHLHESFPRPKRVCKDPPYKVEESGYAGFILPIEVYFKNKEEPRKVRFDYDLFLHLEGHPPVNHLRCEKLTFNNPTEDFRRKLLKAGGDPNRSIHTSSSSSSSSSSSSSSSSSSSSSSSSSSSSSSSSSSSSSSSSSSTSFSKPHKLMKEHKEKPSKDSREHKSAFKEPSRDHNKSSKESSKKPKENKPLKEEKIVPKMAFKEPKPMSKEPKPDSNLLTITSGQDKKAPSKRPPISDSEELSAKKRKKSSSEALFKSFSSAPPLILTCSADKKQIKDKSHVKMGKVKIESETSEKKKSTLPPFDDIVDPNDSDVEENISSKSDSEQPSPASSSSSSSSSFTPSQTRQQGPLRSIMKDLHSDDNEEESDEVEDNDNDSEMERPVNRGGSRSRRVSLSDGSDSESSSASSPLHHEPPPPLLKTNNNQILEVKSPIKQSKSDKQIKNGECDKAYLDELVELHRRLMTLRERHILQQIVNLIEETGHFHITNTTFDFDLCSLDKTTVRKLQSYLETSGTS
Ecoli rRNA inh OD600 = also measured in Ecoli rRNA inh; calls as there; OD600 change, %; measured here: OD600 growth;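 optical density of the mix in the first replicate; 0 = DMSO median and -100 = no signal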
Ecoli rRNA inh RFP = recorded beside Ecoli rRNA inh, whose call it bears; RFP signal change, %; measured here: RFP humanized mutant strains;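 first replicate; 0 = DMSO median and -100 = no signal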
An asterisk follows results filed as active; i = inactive; ? = inconclusive; . = no result given; & = joins results of further samples.

SMILES	Ecoli rRNA inh	Ecoli rRNA inh OD600	Ecoli rRNA inh RFP	Beta apoptosis	RanGTP-Imp inh	Calb FLC	T cruzi repl	FGF22 binding	ALR inh	AF4-AF9 inh
Cc1ccc2[nH]cc(CCNS(=O)(=O)c3ccc(F)cc3)c2c1	-25	-39	-1.9	.	9.1	-2	-9	i	71	-1.1
COCC(=O)Nc1cc(C(=O)NCC(C)C)ccc1Cl	-8	-18	-2.3	-1	1.1	-12	-9	i	-4	4.5
CCCNC(=O)CCC(=O)Nc1ncc(-c2ccc(C)cc2)n1C	.	.	.	-3	-0.4	-16	-16	.	-6	.
CC(=O)Cc1nsc(NC(=O)c2ccc(COc3ccccc3Cl)o2)n1	-20	-53	-6.1	-6	2.9	6	3	i	.	-9.3
COC(=O)C1=C(C)N(CC2CC2)C(=NCc2cc(OC)c(OC)c(OC)c2)N[C@H]1c1ccccc1	6	1	0.4	-6	-2.5	-22	-12	.	-20	.
COc1cc(OC)cc(C(=O)NCCCCNC(=O)c2cc(OC)cc(OC)c2)c1	10	8	-1.2	-5	0.0	3	-1	i	13	0.6
COc1cccc(Cn2c(=O)oc3ccccc32)c1	3	4	3.0	-2	-3.0	-7	2	i	-2	-0.8
CSCCC(NC(=O)c1cc(C)oc1C)C(=O)O (stereo not given)	.	.	.	-12	?	-10	-5	.	-5	.
Cn1c(/C(C#N)=C/c2cccc(O)c2)nc2ccccc21	-24*	-18*	1.1*	2	7.6	20	-27	.	16	4.4
CCc1ccc2oc(C(=O)N3CCN(C)CC3)cc(=O)c2c1	9	15	-2.9	-6	5.1	-9	-2	i	1	-1.7
Cc1ccc(/C=C/C(=O)Nc2nnc(C)s2)o1	.	.	.	-5	7.9	1	-12	.	.	.
CCc1cc2ccccc2nc1SCC(=O)NC1CCCC1	-1	-1	3.7	-1	3.7	-18	1	i	-1	-4.3
COc1ccc(OC)c(-c2nnc(NC(=O)C(C)Sc3nncn3C)s2)c1 (stereo not given)	-9	-15	-2.5	-7	-6.9	0	1	i	5	-2.2
CCc1nnc(NC(=O)c2cc(-c3ccc(C)o3)nc3ccccc23)s1	-15	2	8.7	-3	.	.	.	i	-8	-3.5
O=c1[nH]c2cc3c(cc2cc1CN(Cc1ccco1)C(=S)NCC1CCCO1)OCCO3 (stereo not given)	-10	-21	3.6	-1	-1.2	4	23	.	-1	6.6
O=C(CSc1nnc(CN2CCCCC2)n1-c1ccccc1)c1ccc2c(c1)OCO2	1	3	-4.6	-4	-1.2	0	11	i	16	1.4
C=CCOc1c(Br)cc(/C=N/NC(N)=O)cc1OC	-1	-3	-7.4	-5	9.6	?	-7	i	9	-1.1
C#CCNC(=O)C1=C[C@@H](c2coc3ccccc3c2=O)C[C@@H](OCc2ccc(CO)cc2)O1	-10	-2	-5.2	1	-1.5	17	2	i	.	-0.1&-1.7
Cc1nc(/C=[N+](\[O-])C(C)(C)/C=N/O)n(O)c1C	.	.	.	-1	2.7	2	-5	.	-2	.
CN1CCN(c2cc(N3CCc4ccccc4C3)c(F)cc2[N+](=O)[O-])CC1	.	.	.	22	-2.5	28	17	.	12	.
C/C(=C\c1ccccc1)CN1CCN(c2ccccc2)CC1	.	.	.	-3	-2.6	-13	10	.	68	.
Cc1ccc(S(=O)(=O)Nc2cccc(-c3ccc(N4CCCCCC4)nn3)c2)c(C)c1	-10	3	4.0	3	1.9	-3	26	i	-8	0.2
COc1ccc(C2Nc3ccccc3C(=O)N2c2ccccc2)cc1Cn1cc([N+](=O)[O-])cn1 (stereo not given)	-13	-6	-0.5	-5	-0.8	-8	7	i	-7	2.8
COc1ccc(S(=O)(=O)NCC2CCCO2)cc1NC(=O)c1ccccc1F (stereo not given)	11	26	-0.3	-6	4.6	-5	-6	i	2	-1.3
COc1ccc(-c2cc(C(=O)OCC(=O)c3cccc([N+](=O)[O-])c3)c3cc(C)ccc3n2)cc1	3	-3	-2.3	-2	.	.	4	i	4	-6.0
COc1ccc(OC)c(/C=N/NC(=O)CSc2cc(C)nc3c(OC)cccc23)c1	13	18	0.7	-4	0.9	2	20	i	41	-0.8
Cc1cc(NC(=O)C(C)SCC(=O)Nc2cc(C(F)(F)F)ccc2N2CCOCC2)no1 (stereo not given)	10	10	-0.6	9	0.5	-6	10	i	-1	-6.9
COc1cc(C(=O)N2CCN(Cc3ccc4c(c3)OCO4)CC2)c([N+](=O)[O-])cc1OC	2	7	-1.0	-3	-3.9	1	-12	i	.	1.7
Cc1nn(C)cc1/C=N/NC(=O)Cn1nccc1C	16	7	-14	-1	3.8	20	4	i	0	-1.7
CCC/C=C1/CCCOC(C(=O)NCc2ccccn2)(C(F)(F)F)C1 (stereo not given)	2	-1	2.9	-3	-0.9	-3	10	i	-9	2.4
CC(O)CNCCCOc1cccc(C(F)(F)F)c1 (stereo not given)	10	13	-6.0	-8	-3.3	21	12	i	.	-1.1
COc1ccc(C(=O)c2ccc(N(C)C)cc2)c2ccccc12	.	.	.	.	-3.3	29	8	.	-1	.
Cn1cc(C(CC(=O)O)C(=O)O)c2ccccc21 (stereo not given)	19	-1	-3.0	1	1.7	14	-20	i	-4	0.3
CCn1c(CNc2ccc(Cl)cc2)nnc1SCC#N	2	8	-1.2	3	4.9	22	-4	i	20	0.5
FC(F)C(F)(F)C1=CC(c2ccccc2)=NCCN1	.	.	.	7	?	5	-12	.	-3	.
COc1ccc(/C=N/NC(=O)c2cccnc2)cc1CSc1nc2ccccc2s1	.	.	.	10	-1.3	12	-12	.	1	.
COC(=O)Nc1ccc(C)c2nsnc12	.	.	.	-6	2.2	-4	6	.	1	.
Cc1ccc(NC(=S)c2nc3ccccc3[nH]2)c(C)c1	.	.	.	36	-0.2	-10	23	.	-5	.
CC(C)CNC(=O)COC(=O)c1c2c(nc3ccccc13)/C(=C/c1cccs1)CC2	.	.	.	78*	-74	-3	46	.	-9	.
Cn1c(=O)c2[nH]c(SCc3ccccn3)nc2n(C)c1=S	-43	-66	-5.7	8	1.6	5	-7	i	-7	-0.1

Random excerpt: four entries already listed.
SMILES	Ecoli rRNA inh	Ecoli rRNA inh OD600	Ecoli rRNA inh RFP	Beta apoptosis	RanGTP-Imp inh	Calb FLC	T cruzi repl	FGF22 binding	ALR inh	AF4-AF9 inh
Cn1c(=O)c2[nH]c(SCc3ccccn3)nc2n(C)c1=S	-43	-66	-5.7	8	1.6	5	-7	i	-7	-0.1
CC(C)CNC(=O)COC(=O)c1c2c(nc3ccccc13)/C(=C/c1cccs1)CC2	.	.	.	78*	-74	-3	46	.	-9	.
COC(=O)Nc1ccc(C)c2nsnc12	.	.	.	-6	2.2	-4	6	.	1	.
CC(O)CNCCCOc1cccc(C(F)(F)F)c1 (stereo not given)	10	13	-6.0	-8	-3.3	21	12	i	.	-1.1

(continued)
SMILES	Ecoli rRNA inh	Ecoli rRNA inh OD600	Ecoli rRNA inh RFP	Beta apoptosis	RanGTP-Imp inh	Calb FLC	T cruzi repl	FGF22 binding	ALR inh	AF4-AF9 inh
Cc1cc(C)cc(NC(=O)[C@@H](NC(=O)c2ccco2)C(C)C)c1	4	10	-1.2	1	0.3	-8	2	i	-7	2.3
O=C(CC12CC3CC(CC(C3)C1)C2)NCc1ccc(F)cc1	8	10	0.0	-4	-0.6	-5	-4	i	-2	-5.1
Cc1c(NC(=O)COC(=O)Cn2cc(C(F)(F)F)ccc2=O)cccc1[N+](=O)[O-]	5	13	-0.2	-3	.	.	.	i	-2	1.1
O=C1CCCN2N=C(SCC(=O)N3N=C(c4ccc(Br)cc4)CC3c3ccc(F)cc3)SC2=N1 (stereo not given)	-1	9	-0.1	-7	20*	12	33	i	.	-2.5
COc1ccc(C(=O)Cc2ccccc2)cc1OC	.	.	.	-11	1.8	3	-21	.	-2	.
C/C(=N/NC(N)=S)c1cc2ccc(O)cc2oc1=O	14	10	0.3	-3	152*	9	-20	i	.	-46
O=c1cnnc(N/N=C/c2cccs2)[nH]1	13	9	-2.4	-5	?	-2	-8	i	-6	-1.2
O=C(NCc1ccc(F)cc1)C1CC(=O)N(Cc2ccco2)C1 (stereo not given)	1	11	-1.4	-4	3.3	12	-18	i	-4	-2.4
Cc1nc(SCC(=O)N2CCOCC2)c2c(C)c(C)sc2n1	-4	-2	-2.4	-5	1.7	-5	-12	i	-3	0.9
C/C(=N\NC(=O)c1nn(C)c(C)c1Br)c1ccc(NC(=O)C2CCCC2)cc1	.	.	.	2	.	112*	.	i	-4	-0.9
O=C(Cc1cccs1)N(c1ccc(Br)cc1)C1C=CS(=O)(=O)C1 (stereo not given)	2	10	-1.3	-2	1.0	0	-8	i	-3	1.6
CC1CN(S(=O)(=O)c2ccccc2)C(C)N1C(=O)N1CCOCC1 (stereo not given)	8	13	1.9	.	-1.5	2	5	i	-3	-1.2
CC1CC1C(=O)OCC(=O)NC(=O)NCc1ccco1 (stereo not given)	.	.	.	-5	2.2	-2	-22	.	0	.
CCOC(=O)C1(CCCc2ccccc2)CCN(C(=O)Cc2nonc2C)CC1	-22	-37	-4.2	-1	6.5	-2	16	i	-3	-10
O=C(O)c1ccc2c(c1)C(=O)N(c1ccc([N+](=O)[O-])cn1)C2=O	18	16	1.6	-4	?	-1	-14	i	-12	3.8
CCOc1ccc(Nc2ccc(C(=O)O)cc2[N+](=O)[O-])cc1	0	-4	0.3	.	-0.5	-7	-14	i	.	1.3
O=C(NNC(=O)c1cccc(S(=O)(=O)N2CCc3ccccc32)c1)c1ccccc1	-26*	-6.0*	9.1*	.	3.1	-19	21	i	.	-2.1
COc1cc(S(C)=O)ccc1-c1nc2ncccc2[nH]1 (stereo not given)	-3	-8	-7.6	-1	.	.	.	i	-19	0.4
O=C(CNC(=O)c1ccc(Br)o1)NCc1ccc(Cl)cc1Cl	19	11	-0.3	0	-1.9	10	8	i	-1	1.4
O=C(CN(Cc1ccc2c(c1)OCO2)C(=O)CSc1nc2ccccc2o1)NC1CCCCC1	.	.	.	-2	2.9	-1	8	.	-10	.
O=C(/C(=N/N=C/c1ccc(O)c(O)c1)c1ccccc1)c1ccccc1	.	.	.	-5	-0.4	6	-21	i	.	35*
CCSc1nc(-c2ccco2)ccc1C#N	.	.	.	-1	1.9	-6	-13	.	.	.
O=C(N/N=C\c1ccccc1)c1sccc1-n1cccc1	.	.	.	-2	0.4	3	-11	.	.	.
CC1C/C(=N\NC(=O)c2cccnc2)CC(C)(C)C1 (stereo not given)	24	12	-1.1	-3	-0.6	15	-8	i	0	0.9
COc1ccc(NC(=O)CSCC(=O)Nc2ccc(C)c(S(=O)(=O)N3CCCCCC3)c2)cc1	-35*	-25*	3.9*	0	1.9	-5	-1	i	-12	0.5
COC(=O)c1ccc2c(C)c(C(C)(C)O)[nH]c2c1	2	2	6.8	0	0.8	-7	-2	i	10	2.5
COc1ccc(NC(=O)CSc2ncnc3c2nnn3-c2ccc(F)cc2)c(OC)c1	8	0	3.0	0	-3.6	32	-17	i	-5	0.6
COc1cc(NC(=O)c2ccc3c(=O)n(Cc4ccco4)c(=S)[nH]c3c2)cc(OC)c1OC	.	.	.	4	0.9	-2	-14	.	0	.

High-throughput results (PubChem)

Some of the compounds tested; rates above refer to the full screens.
